# GALR2 ag: agonists of human galanin receptor 2 (GALR2); GALR2-expressing cells, agonist activation read-out; activation, %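 (tested at 5 µM)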; 140,000 tested, 0.48% active; AID 803;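 active = above mean plus 3 SD of all compounds, about 5% in these data, not always enough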;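 also: 0% = vehicle buffer wells and 100% = reference agonist at full effect; tested in CHO reporter cells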
# RGS16-Gao: regulators of human RGS16-Galphao interaction | bead-based flow cytometry RGS16-Galphao binding, fluorescence; actives lie on both sides | 220,000 tested, 0.38% active | AID 1441 | binding response (% of control), % at 10 µM | O15492+P09471;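 active = below 25% or above 175%, edge rows of some plates excepted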;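 also: Galphao activated by GDP with aluminum fluoride before binding; 100% = wells without compound and 0% = beads without RGS; some results beyond the cut were filed as inactive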
# Target sequence (O15492 whole entry, looked up): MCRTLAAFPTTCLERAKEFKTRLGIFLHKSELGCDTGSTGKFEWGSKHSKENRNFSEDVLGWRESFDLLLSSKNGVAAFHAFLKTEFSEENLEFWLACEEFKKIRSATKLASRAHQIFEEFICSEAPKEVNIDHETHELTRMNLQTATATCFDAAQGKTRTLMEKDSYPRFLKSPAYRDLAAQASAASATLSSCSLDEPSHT
# Target sequence (P09471 whole entry, looked up): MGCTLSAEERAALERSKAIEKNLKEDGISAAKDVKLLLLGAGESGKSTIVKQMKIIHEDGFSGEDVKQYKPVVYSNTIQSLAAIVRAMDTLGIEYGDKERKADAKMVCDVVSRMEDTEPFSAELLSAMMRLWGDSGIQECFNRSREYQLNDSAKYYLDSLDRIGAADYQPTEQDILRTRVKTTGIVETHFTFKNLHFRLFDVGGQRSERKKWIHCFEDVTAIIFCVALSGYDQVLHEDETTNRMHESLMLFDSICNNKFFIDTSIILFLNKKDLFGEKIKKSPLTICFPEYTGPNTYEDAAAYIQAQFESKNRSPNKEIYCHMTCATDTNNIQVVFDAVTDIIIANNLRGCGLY
# HSV augment: increases HSV replication in cells. HSV replication augmentation in cells, fold increase. maximum fold increase. 220,000 tested, 0.005% active. AID 1956;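 active = peak rise of 1.5-fold or more in the series; tested in PC3 cells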;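 also: first round at 10 µM; read as green reporter fluorescence; hits show the peak of a series up to 25 µM; 1 = signal of infected wells without compound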
# PKD1 inh: inhibitors of human PKD1 kinase; PKD1 kinase fluorescence polarization assay; inhibition, %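 (about 10 µM by stock and volumes)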; 200,000 tested, 0.056% active; AID 797;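 active = inhibition of 50% or more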;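 also: controls were vehicle for no effect and a reference inhibitor for full effect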
# INS promoter inh: TRM-6 insulin promoter activity inhibition; TRM-6 cells (human fetal islet line), insulin promoter-eGFP reporter, imaging; reporter expression induced with tamoxifen; inhibition, % at 2 µM; 130,000 tested, 0.9% active;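 active = inhibition above the mean plus 3 SD, with well images judged a real hit on visual review, cut at about 60% in these data, passing the limit was not always enough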
# INS promoter inh cell count: recorded beside INS promoter inh, whose call it bears; normalized cell count, %; measured here: cell count, toxicity; reference of the scale not given here;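 cells exposed to compound for 48 h; stained nuclei by imaging scaled within each plate; lower means fewer cells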
# HSV augment primary fold: recorded beside HSV augment, whose call it bears; fold increase; compound at 10 µM; measured here: primary screen fold increase 10 uM; tested in PC3 cells;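 GFP signal in the first replicate; 1 = infected wells without compound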
# * marks the source's active call; other numbers are inactive results; i = inactive; · = no result given. Outcome played no part in choosing rows, and some 1.3% of all compounds hit somewhere here.
# Start of the listing, in advance:
SMILES,GALR2 ag,RGS16-Gao,HSV augment,HSV augment primary fold,PKD1 inh,INS promoter inh,INS promoter inh cell count
CC/C(C)=N/Nc1nc2c(c(=O)[nH]c(=O)n2C)n1CCc1ccccc1,·,97,i,0.93,3,·,·
Cc1ccc(NC(=O)CSc2nc3c([nH]c4ccccc43)c(=O)n2C)cc1,·,100,i,1,-6,-26,39
O=C(Nc1nonc1NC(=O)C1CCCCC1)C1CCCCC1,-1.8,97,i,0.97,-2,1,100
COc1ccccc1/C=C1\SC(=S)N(C(C(=O)O)c2ccccc2)C1=O (stereo not given),·,97,i,1.1,·,·,·

# Results, from the start:
SMILES,GALR2 ag,RGS16-Gao,HSV augment,HSV augment primary fold,PKD1 inh,INS promoter inh,INS promoter inh cell count
CC/C(C)=N/Nc1nc2c(c(=O)[nH]c(=O)n2C)n1CCc1ccccc1,·,97,i,0.93,3,·,·
Cc1ccc(NC(=O)CSc2nc3c([nH]c4ccccc43)c(=O)n2C)cc1,·,100,i,1,-6,-26,39
O=C(Nc1nonc1NC(=O)C1CCCCC1)C1CCCCC1,-1.8,97,i,0.97,-2,1,100
COc1ccccc1/C=C1\SC(=S)N(C(C(=O)O)c2ccccc2)C1=O (stereo not given),·,97,i,1.1,·,·,·
CCN(CC)C(=O)CSc1ccc(C(F)(F)F)cc1[N+](=O)[O-],1.2,101,i,0.95,4,-29,80
Cc1nnc(NC(=O)CSc2nnc(-c3ccco3)o2)s1,·,111,i,1,3,18,78
CCOC(=O)N1CCN(Cc2cc(=O)oc3ccc4ccccc4c23)CC1,-1.6,69,i,0.92,-8,36,81
COc1cccc(N(CC(=O)Nc2ccccc2C)S(C)(=O)=O)c1,-1.9,105,i,1.1,-10,-29,51
CCN(CC)C(=O)CCCSc1nnc(Nc2ccccc2F)s1,·,104,i,0.92,3,-14,118
O=C1C=C(NC2CC2)C2(CCCCC2)O1,-1.9,112,i,0.97,7,-10,131
COc1ccc(OC)c(NC(=O)Cn2c(CCC(=O)O)ccc2-c2ccc(C)cc2)c1,·,98,i,1.1,6,·,·
CC(C)C[C@H](N)c1cn([C@@H](Cc2cc3ccccc3[nH]2)C(=O)N2CCNCC2)nn1,·,104,i,0.94,1,·,·
COc1ccc(C2C(C(=O)Nc3cc(OC)c(OC)c(OC)c3)c3ccccc3C(=O)N2C)cc1 (stereo not given),·,76,i,0.75,-10,-180,8
CC(C)NC(=O)C1(O)c2ccccc2NC(=O)N1c1ccc(Cl)c(Cl)c1 (stereo not given),-0.5,102,i,1,-6,·,·
O=C(N/N=C\C=C\c1ccco1)C1COc2ccccc2O1 (stereo not given),·,101,i,1.1,·,·,·
COc1ccc(N2CCN(C(c3ccco3)c3sc4nc(C)nn4c3O)CC2)cc1 (stereo not given),-1.7,95,i,0.99,5,21,105
COc1ccc(N(CC(=O)N/N=C/c2ccc(-c3ccc([N+](=O)[O-])cc3)o2)S(=O)(=O)c2ccc(C)cc2)cc1Cl,-1.0,95,i,0.94,6,-20,127
O=C(COC(=O)Cn1cnc2ccccc2c1=O)Nc1ccc(Cl)cc1,-1.2,101,i,1,8,·,·
COc1ccccc1-c1nc2s/c(=C\c3cccs3)c(=O)n2n1,-0.2,101,i,1.1,-8,·,·
COC(=O)c1cccc(NC(=O)C23CC4CC(C2)CC(n2cncn2)(C4)C3)c1,-2.0,105,i,0.93,-2,-123,81
Nc1ccc(C(=O)OCC(=O)Nc2cc([N+](=O)[O-])ccc2F)cc1,-1.0,97,i,1.1,-5,·,·
O=C(NCCc1c[nH]c2ccccc12)C(=O)NCC1OCCCN1S(=O)(=O)c1cccs1 (stereo not given),·,109,i,1.1,3,-27,86
Cc1ccc(N/C(N)=N/c2nc(C)cc(N3CCCCC3)n2)c(C)c1,·,97,i,0.71,0,·,·
O=C(Nc1ccccc1)C(=O)c1cn(CC(=O)N2CCCCC2)c2ccccc12,-0.6,102,i,0.89,3,·,·
O=C(CCN1C(=O)COc2ccccc21)NCCN1CCOCC1,-3.0,104,i,0.87,-5,39,69

# Record cards, as listed above. Screens in order: GALR2 ag	RGS16-Gao	HSV augment	HSV augment primary fold	PKD1 inh	INS promoter inh	INS promoter inh cell count
# O=C(Nc1nonc1NC(=O)C1CCCCC1)C1CCCCC1 across the screens: -1.8	97	i	0.97	-2	1	100
# O=C(COC(=O)Cn1cnc2ccccc2c1=O)Nc1ccc(Cl)cc1 across the screens: -1.2	101	i	1	8	·	·
# O=C(Nc1ccccc1)C(=O)c1cn(CC(=O)N2CCCCC2)c2ccccc12 across the screens: -0.6	102	i	0.89	3	·	·

# Compounds listed so far with a COOH group:
SMILES,GALR2 ag,RGS16-Gao,HSV augment,HSV augment primary fold,PKD1 inh,INS promoter inh,INS promoter inh cell count
COc1ccccc1/C=C1\SC(=S)N(C(C(=O)O)c2ccccc2)C1=O (stereo not given),·,97,i,1.1,·,·,·
COc1ccc(OC)c(NC(=O)Cn2c(CCC(=O)O)ccc2-c2ccc(C)cc2)c1,·,98,i,1.1,6,·,·

# Six entries out of the list above, sorted by their value in PKD1 inh, falling.
SMILES	GALR2 ag	RGS16-Gao	HSV augment	HSV augment primary fold	PKD1 inh
O=C(COC(=O)Cn1cnc2ccccc2c1=O)Nc1ccc(Cl)cc1	-1.2	101	i	1	8
O=C1C=C(NC2CC2)C2(CCCCC2)O1	-1.9	112	i	0.97	7
COc1ccc(N(CC(=O)N/N=C/c2ccc(-c3ccc([N+](=O)[O-])cc3)o2)S(=O)(=O)c2ccc(C)cc2)cc1Cl	-1.0	95	i	0.94	6
CC/C(C)=N/Nc1nc2c(c(=O)[nH]c(=O)n2C)n1CCc1ccccc1	·	97	i	0.93	3
O=C(Nc1nonc1NC(=O)C1CCCCC1)C1CCCCC1	-1.8	97	i	0.97	-2
COc1ccc(C2C(C(=O)Nc3cc(OC)c(OC)c(OC)c3)c3ccccc3C(=O)N2C)cc1 (stereo not given)	·	76	i	0.75	-10

# Additional records follow.
SMILES,GALR2 ag,RGS16-Gao,HSV augment,HSV augment primary fold,PKD1 inh,INS promoter inh,INS promoter inh cell count
Cc1cc(OCC(=O)O/N=C(\N)Cc2cccs2)ccc1Br,-2.3,107,i,1.1,6,-133,105
CC1CCC/C(=N\NC(=O)c2ccncc2)C1 (stereo not given),0.0,49,i,0.94,-3,-7,44
COc1ccccc1CNc1ccc(C(=O)O)cc1,-3.9,109,i,0.96,-2,-13,74
COc1cc([N+](=O)[O-])ccc1-c1ccc(/C=N/NC(=O)OC(C)(C)C)o1,·,94,i,0.87,·,·,·
COCCOC(=O)C1=C(C)NC(=O)NC1C1CC=CCC1 (stereo not given),-2.4,102,i,0.96,10,·,·
CCOC(=O)c1cnn(-c2ccccc2)c1NC(=O)CCl,-1.7,97,i,0.98,-4,-3,41
Cc1ccccc1-c1ccc(=O)n(CC(=O)Nc2ccc(C(=O)N3CCCC3)cc2)n1,-0.5,98,i,0.84,-5,0,193
CC(C)C(=O)Nc1c2c(nc3c1CCC3)CCCC2,-2.3,112,i,0.91,-1,-26,103
COC(=O)c1cc(C#N)c(Oc2ccc(F)cc2)nc1C,-2.3,97,i,1,1,-7,98
COCc1cc(C)nc(N2CCN(c3ccccc3)CC2)c1C#N,-0.3,111,i,0.89,0,-4,70
O=C(NNS(=O)(=O)c1ccc(Br)cc1)NC1CCCCC1,-2.5,105,i,0.94,-14,·,·
O=C(O)CCN1C(=O)CC2(CCCCC2)C1=O,0.2,103,i,0.88,-15,27,177
O=C(c1cccc(C(F)(F)F)c1)c1c[nH]c(C(=O)NCC2CCCO2)c1 (stereo not given),·,101,i,0.87,3,·,·
COc1ccc(-n2c(SCC3CNC(=O)O3)nnc2-c2ccc(Cl)cc2)cc1 (stereo not given),0.6,46,i,1.1,-3,17,74
CCOC(=O)Cc1csc(NC(=O)CCC(=O)O)n1,·,101,i,0.65,·,·,·
CC(C)C[C@H](NC(=O)c1nc[nH]c1C(=O)N1CCC(C)CC1)C(=O)OCc1ccccc1,·,105,i,0.94,·,·,·

# Bioassay records (PubChem)
